Screens (PubChem BioAssay)
Beta2AR agonist – beta2AR agonists driving receptor internalization, primary screen, cell-based, FAP fluorogen, flow cytometry; response, % (test concentration not listed); Am2.2-beta2AR cells; reference of the scale not given here; Beta-2 adrenergic receptor (Homo sapiens), P07550; 0.43% of 340,000 active;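 active = response above a set limit, near 3 SD of response in nonfluorescent compounds, cut at about 42% in these data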;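 also: stock transfer was 100 nL into about 11 µL; a reference agonist was the positive control; negative values mostly stem from fluorescent compounds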
Target sequence (P07550 whole entry, looked up): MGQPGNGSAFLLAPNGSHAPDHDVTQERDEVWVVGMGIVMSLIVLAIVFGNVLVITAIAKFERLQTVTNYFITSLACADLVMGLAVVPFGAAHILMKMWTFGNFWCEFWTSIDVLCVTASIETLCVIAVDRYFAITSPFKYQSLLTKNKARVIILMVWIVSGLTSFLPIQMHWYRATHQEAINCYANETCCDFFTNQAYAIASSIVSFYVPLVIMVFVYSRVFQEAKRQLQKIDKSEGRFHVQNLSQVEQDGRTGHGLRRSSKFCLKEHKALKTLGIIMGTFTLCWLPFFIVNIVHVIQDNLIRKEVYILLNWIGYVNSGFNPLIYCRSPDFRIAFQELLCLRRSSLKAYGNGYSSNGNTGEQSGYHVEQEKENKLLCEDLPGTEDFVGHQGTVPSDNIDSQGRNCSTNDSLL
HNF4A DNA FP – change in binding of human HNF4A to DNA, primary screen, biochemical, fluorescence polarization, FITC-DNA. Hepatocyte nuclear factor 4-alpha (Homo sapiens), P41235. 1 h. activity change, % at 10 µM. 0.3% of 360,000 active. AID 1224865, 2016; in the data active = activity change above about 30%, passing the limit was not always enough;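 also: controls were the assay level and a saturating level of protein; the project sought stronger binding though the title names inhibitors; some compounds called inactive have numbers as strong as hits; positive values seem to mean higher polarization but the record does not say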
Target sequence (P41235 whole entry, looked up): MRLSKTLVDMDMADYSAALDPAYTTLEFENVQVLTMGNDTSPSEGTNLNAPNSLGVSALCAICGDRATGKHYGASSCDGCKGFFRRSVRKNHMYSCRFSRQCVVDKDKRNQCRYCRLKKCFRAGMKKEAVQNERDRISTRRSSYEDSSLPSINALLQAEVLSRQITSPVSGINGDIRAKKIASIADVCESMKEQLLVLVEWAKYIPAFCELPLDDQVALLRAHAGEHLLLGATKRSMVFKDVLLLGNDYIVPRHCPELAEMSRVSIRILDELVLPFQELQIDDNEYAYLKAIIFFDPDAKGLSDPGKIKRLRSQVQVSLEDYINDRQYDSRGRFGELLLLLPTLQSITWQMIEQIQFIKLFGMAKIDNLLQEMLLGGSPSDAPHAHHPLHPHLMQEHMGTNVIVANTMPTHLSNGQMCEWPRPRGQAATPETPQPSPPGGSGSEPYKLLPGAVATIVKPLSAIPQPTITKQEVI
LANA-H2B inh – blockers of LANA interaction with H2A/H2B – biochemical, FP readout, HTS, primary screen; Protein LANA1 (Human herpesvirus 8 type P (isolate GK18)), Q9QR71; cell-free LANA-H2A/H2B peptide, fluorescence polarization; inhibition, % (test concentration not listed); 0.6% of 320,000 active; AID 2629, 2010; in the data active = inhibition mostly above about 10%, no sharp cut-off; inactive = mostly below about 6.7%;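 also: stock transfer was 7.5 nL into about 10 µL; 0% = median of vehicle wells and 100% = median of positive control wells; one replicate is shown; the record names a cut of 25% in any replicate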
UCH37 inh – inhibitors of human UCH37 deubiquitinase, primary screen, biochemical, Ub-AMC cleavage, fluorescence; purified proteasome/UCH37; inhibition, % (test concentration not listed); AID 588478, 2011; 0.33% of 330,000 active;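 active = mean of two replicates above 20%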;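 also: 0% = compound-free wells with enzyme and 100% = wells lacking proteasome; stock transfer was 100 nL into about 20 µL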
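Material: human UCH37 enzyme supplied as purified proteasome complex. Measure: % inhibition of Ub-AMC cleavage fluorescence. Medium: pH 7.4 Tris-HCl (50 mM) with ovalbumin, ATP-MgCl2, DTT. Times: 30 min preincubation with enzyme, 25 min cleavage at room temperature. Detection: AMC fluorescence intensity at 355/460 nm.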
E coli growth – E. coli growth inhibition, primary screen, OD600; AID 1053175, 2014; OD600 absorbance (test concentration not listed); 0.21% of 330,000 active; Escherichia coli growth, 23 h; hits give low values;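 active = OD600 absorbance below the run mean of sample wells minus 3.6 SD, in any replicate, cut at about 0.56 in these data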;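 also: stock transfer was 300 nL into about 60 µL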
FGF22 binding – binders of human FGF22 protein, primary screen, FGF22 synaptogenesis inhibitor project, biophysical, thermal shift, single point | recombinant FGF22 thermal shift, SYPRO orange fluorescence; percent of sucrose octasulfate shift, DMSO zero | AID 651658, 2012 | 1.5% of 340,000 active | calls only at 9.99 µM;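 active = melting point raised past a set limit in the mean and every replicate; three in four hits are not shown here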
Target sequence (Q9HCT0 whole entry, looked up): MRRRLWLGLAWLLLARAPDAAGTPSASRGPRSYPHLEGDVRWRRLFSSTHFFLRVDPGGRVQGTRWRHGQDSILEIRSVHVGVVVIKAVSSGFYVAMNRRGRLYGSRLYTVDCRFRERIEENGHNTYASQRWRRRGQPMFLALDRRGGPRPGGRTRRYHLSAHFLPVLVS
ALR inh – inhibitors of human ALR sulfhydryl oxidase, primary screen, biochemical, H2O2 detection, HRP-luminol luminescence, single point; inhibition, % (test concentration not listed); 3.8% of 290,000 active; FAD-linked sulfhydryl oxidase ALR (Homo sapiens), P55789; AID 485317, 2010; purified ALR, DTT oxidation;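 active = mean and each replicate at 75% or more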;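 also: stock transfer was 7.5 nL into about 7.5 µL; 0% = neutral wells and 100% = wells with inactivated enzyme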
Active calls of the source: *; i = inactive; · = not tested or not shown. These rows are one share of the data; count on the stated rates, not on these rows.

Start of the listing, in advance (nine entries):
SMILES | Beta2AR agonist | HNF4A DNA FP | LANA-H2B inh | UCH37 inh | E coli growth | FGF22 binding | ALR inh
CCOC(=O)C1CCCN(c2c(Nc3ccc(C)c(C)c3)c(=O)c2=O)C1 (stereo unspecified) | 7 | -2.4 | 1.2 | 9.6 | 0.71 | i | ·
S=C(c1cn(Cc2ccc(Br)cc2)c2ccccc12)N1CCOCC1 | 0 | 2.8 | -1.2 | · | · | · | 7
CCc1cccc(C)c1NC(=O)CSc1nnc(-c2cc3cc(Br)ccc3o2)n1CC | -1 | -2.8 | 8.8 | 2.1 | 0.69 | · | -3
CC(C)(C)c1ccc(C(=O)OCc2c(-c3ccccc3)ncc3ccccc23)cc1 | 2 | 2.2 | 0.6 | 1.8 | 0.74 | i | ·
CC(C)(C)OC(=O)N/N=C/c1cccn1-c1ccc([N+](=O)[O-])cc1 | -6 | -0.1 | -5.2 | · | · | i | 1
Cc1ccc(-n2c3nc(=O)[nH]c(=O)c-3cc3cc([N+](=O)[O-])ccc32)cc1C | 16 | -7.3 | 5.9 | 0.5 | 0.69 | i | -24
Cc1ccc(NC(=O)C(C)N=C2NS(=O)(=O)c3ccccc32)cc1 (stereo unspecified) | 1 | 3.0 | 1.2 | 2.6 | 0.69 | i | 16
COc1ccc(C(C(=O)NC2CCCCC2)N(C(=O)Cc2c[nH]c3ccccc23)c2ccc(NC(C)=O)cc2)cc1OC (stereo unspecified) | 0 | 1.0 | 0.0 | 1.6 | 0.71 | · | -27
CC[n+]1c(C)sc2cc(C)ccc21 | 9 | -2.2 | 9.2* | · | · | i | 18

This part in full, from the start:
SMILES | Beta2AR agonist | HNF4A DNA FP | LANA-H2B inh | UCH37 inh | E coli growth | FGF22 binding | ALR inh
CCOC(=O)C1CCCN(c2c(Nc3ccc(C)c(C)c3)c(=O)c2=O)C1 (stereo unspecified) | 7 | -2.4 | 1.2 | 9.6 | 0.71 | i | ·
S=C(c1cn(Cc2ccc(Br)cc2)c2ccccc12)N1CCOCC1 | 0 | 2.8 | -1.2 | · | · | · | 7
CCc1cccc(C)c1NC(=O)CSc1nnc(-c2cc3cc(Br)ccc3o2)n1CC | -1 | -2.8 | 8.8 | 2.1 | 0.69 | · | -3
CC(C)(C)c1ccc(C(=O)OCc2c(-c3ccccc3)ncc3ccccc23)cc1 | 2 | 2.2 | 0.6 | 1.8 | 0.74 | i | ·
CC(C)(C)OC(=O)N/N=C/c1cccn1-c1ccc([N+](=O)[O-])cc1 | -6 | -0.1 | -5.2 | · | · | i | 1
Cc1ccc(-n2c3nc(=O)[nH]c(=O)c-3cc3cc([N+](=O)[O-])ccc32)cc1C | 16 | -7.3 | 5.9 | 0.5 | 0.69 | i | -24
Cc1ccc(NC(=O)C(C)N=C2NS(=O)(=O)c3ccccc32)cc1 (stereo unspecified) | 1 | 3.0 | 1.2 | 2.6 | 0.69 | i | 16
COc1ccc(C(C(=O)NC2CCCCC2)N(C(=O)Cc2c[nH]c3ccccc23)c2ccc(NC(C)=O)cc2)cc1OC (stereo unspecified) | 0 | 1.0 | 0.0 | 1.6 | 0.71 | · | -27
CC[n+]1c(C)sc2cc(C)ccc21 | 9 | -2.2 | 9.2* | · | · | i | 18
CC[C@]12c3[nH]c4ccc(OC)cc4c3CCN1C(=O)C(CC(=O)NCc1ccco1)C[C@@H]2C(=O)N1CCN(C(=O)C2CC2)CC1 (stereo partly specified) | -2 | 0.7 | · | -1.7 | 0.71 | i | ·
COc1ccc2oc(C(=O)OCC(=O)Nc3cc(S(=O)(=O)N4CCOCC4)ccc3OC)c(C)c2c1 | 2 | 1.9 | 4.5 | -33 | 0.69 | i | -16
COc1ccccc1NC(=O)c1ccccc1NC(=O)c1cc(Cl)ccc1NC(=O)c1ccco1 | 3 | 4.2 | -0.1 | -145 | 0.76 | · | -6
COc1cc(NC(=O)CC(C)S(=O)(=O)c2ccc3c(c2)NC(=O)CO3)cc(OC)c1OC (stereo unspecified) | 0 | 1.4 | 5.4 | 0.6 | 0.69 | i | -9
O=C(N/N=C\c1cccc(F)c1)c1ccc(-c2ccccc2)cc1 | 0 | -3.7 | -0.5 | · | · | i | -11
CN(C)c1ccc(C(=O)Nc2nc3c(s2)CCCC3)cc1 | 4 | -5.9 | 0.5 | -5.8 | 0.7 | i | 96*
O=C(CCn1c(=S)oc2ccccc21)NC1CCCCCCC1 | -4 | -4.2 | -2.6 | -0.1 | 0.71 | i | -17
O=C(/C=C/c1ccc(OCCCF)cc1)NCc1cccc(Cl)c1 | -13 | -2.5 | 1.8 | 3.8 | 0.74 | · | 0
CN(C)S(=O)(=O)c1ccc(NC(=O)Cn2ccsc2=N)cc1 | 4 | -0.2 | -3.8 | 1.3 | 0.64 | i | -68
COc1ccccc1N(CC(=O)Nc1ccc2c(c1)OCCO2)S(C)(=O)=O | 10 | -1.4 | 0.6 | 5.9 | 0.76 | · | ·
O=[N+]([O-])c1ccc(N2CCOCC2)cc1 | -8 | 4.7 | · | 11 | 0.65 | i | ·
COc1ccc(-c2nc(-c3ccccc3)no2)c(OC)c1 | -3 | 3.5 | -1.8 | 1.6 | 0.69 | i | 9
C=CC[C@@H](CC(=O)N[C@@H](CO)Cc1ccccc1)C(=O)NCCOC(=O)[C@@H](CC=C)CC(=O)OC(C)(C)C | -8 | -1.6 | -10 | 5.0 | · | i | 1
CN(c1ccccc1)S(=O)(=O)c1ccc2[nH]c(=O)[nH]c2c1 | 4 | 0.6 | 1.6 | 1.5 | 0.67 | i | -4
NC(=O)CSc1nnc(NC(=O)C2CC(=O)N(c3ccc(F)cc3)C2)s1 (stereo unspecified) | 6 | 4.9 | 0.9 | 2.1 | 0.66 | i | -4
CS(=O)(=O)Nc1nnc(SCC(=O)N(c2ccccc2)c2ccccc2)s1 | 1 | 0.9 | -2.7 | 1.4 | 0.72 | i | -2
CCC(c1nnnn1C(C)(C)CC)N(CCCO)Cc1cc2cc(C)cc(C)c2[nH]c1=O (stereo unspecified) | 2 | -1.2 | · | 3.0 | 0.73 | · | ·
COc1ccccc1CN(C)C(=O)c1cccc(S(=O)(=O)N2CCN(Cc3ccccc3)CC2)c1 | -6 | -6.3 | 3.1 | 1.0 | 0.7 | i | -2
CN(C)C(CN=C1NS(=O)(=O)c2ccccc21)c1ccco1 (stereo unspecified) | 0 | -2.2 | -2.6 | -3.5 | 0.65 | i | 7
Cc1cccc(OCC(=O)Nc2ccc(NC(=O)c3ccccc3)cc2)c1 | 9 | 1.6 | -5.9 | -1.3 | 0.71 | i | -6
CC(C)(C)S(=O)(=O)Cc1nc(-c2ccc(Cl)c(Cl)c2)cs1 | 0 | 0.8 | -2.4 | 1.7 | 0.65 | i | -7
Cc1cc(Br)ccc1NC(=O)CNC(=O)c1ccc(-n2cncn2)c([N+](=O)[O-])c1 | -3 | -0.2 | -0.3 | 0.4 | 0.72 | i | -5
COc1cccc(NC(=O)CCCn2c(=S)[nH]c3ccccc3c2=O)c1 | -9 | -3.1 | -5.0 | -0.7 | 0.73 | · | 83*
O=C1c2cccnc2C(=O)N1Cc1cccs1 | 6 | -3.4 | -3.8 | 7.0 | 0.77 | i | -5
COc1cc(CC(=O)OCC(=O)c2ccc(F)cc2)cc(OC)c1OC | 0 | 2.4 | 2.3 | 0.1 | 0.68 | i | -13
C=CCc1ccc(OCC(O)CN2CCN(c3ccccc3OC)CC2)c(OC)c1 (stereo unspecified) | -5 | 2.7 | -1.0 | 5.9 | 0.68 | i | -3
CC(CCN1CCC(CN2C(=O)C(=O)NC[C@@H]2Cc2ccccc2)CC1)c1ccccc1 (stereo partly specified) | -9 | 0.5 | · | · | · | i | ·
CC1(C)Cc2c(sc3c2c(=N)n(Cc2ccco2)c(=O)n3Cc2ccccc2)CO1 | 6 | -1.6 | 0.4 | -0.9 | 0.73 | · | -9
C=CCn1c(SCC(=O)C(C)(C)C)nnc1-c1cccs1 | -11 | 4.8 | 5.7 | 2.9 | 0.73 | · | -2
CCCN(CCC)CCCNC(=O)c1cc2c(=O)[nH]c3ccccc3c2n1C | -24 | -1.7 | 4.0 | -11 | 0.68 | i | -6
CSc1cccc(NS(=O)(=O)c2cccs2)c1 | 7 | 3.7 | 0.6 | 0.4 | 0.67 | · | -4
COc1ccc2c(C)cc(SCC(=O)Nc3cccnc3Cl)nc2c1 | 6 | -0.6 | -1.2 | 1.6 | 0.71 | i | -3
Cc1ccc(-c2nc3ccccc3o2)cc1NC(=S)NC(=O)c1cc2ccccc2o1 | 0 | 18 | 1.9 | 7.1 | 0.73 | i | ·
COc1ccc(CC(=O)NCC(=O)N=Nc2c(O)[nH]c3ccccc23)cc1 | 1 | -3.7 | 3.7 | 0.6 | 0.68 | i | 1
O=C(/C=C/c1cccc(F)c1)NCc1ccc2c(c1)OCO2 | -7 | 1.0 | -4.4 | 4.7 | 0.65 | i | -3
CCN(c1cccc(C)c1)S(=O)(=O)c1ccc2c3c(cccc13)C(=O)N2 | 5 | 0.6 | 1.5 | -31 | 0.7 | · | -14
CN(c1ccccc1)S(=O)(=O)c1nnc(NC(=O)c2ccco2)s1 | 7 | -1.2 | -1.9 | 4.5 | 0.7 | i | 2
COc1cccc(NC(=O)C2CC(=O)N(Cc3ccco3)C2)c1 (stereo unspecified) | 6 | 2.2 | 2.6 | 3.5 | 0.71 | i | -9
Cc1ccc(NC(=O)C2CCC(C(C)(C)C)CC2)cc1S(=O)(=O)N1CCOCC1 (stereo unspecified) | -1 | 6.9 | -2.7 | -1.9 | 0.72 | i | 0
OC(COc1ccccc1)CN1CCCC1 (stereo unspecified) | 4 | 4.1 | -2.8 | 1.9 | 0.69 | i | -2
NC(=O)C1CCN(c2nc(-c3ccccc3)nc3ccccc23)CC1 | -19 | 1.0 | -3.8 | 3.0 | 0.66 | · | ·

Other compounds.
SMILES | Beta2AR agonist | HNF4A DNA FP | LANA-H2B inh | UCH37 inh | E coli growth | FGF22 binding | ALR inh
CCOc1ccc(CN2CCC(n3nccc3NC(=O)CCCc3ccccc3)CC2)cc1 | 4 | 5.1 | -3.9 | 3.3 | 0.63 | i | 3
COc1ccccc1-n1cc(CN2CCN(CC=C(C)C)C(CCO)C2)cn1 (stereo unspecified) | 2 | 9.2 | -2.2 | -0.2 | 0.65 | i | ·
CCOC(=O)c1sc(NC(=O)c2ccoc2C)c(C(N)=O)c1C | 4 | 4.1 | -1.0 | · | · | i | 13
O=c1c(C(c2ccccc2)c2c(O)sc3ccccc3c2=O)c(O)sc2ccccc12 | -2 | 0.4 | 11* | 2.7 | 0.73 | · | 23
Cc1ccc(NC(=O)NC2CCN(CC(=O)Nc3nccs3)CC2)cc1 | -5 | 3.6 | 1.6 | 6.8 | 0.72 | · | -22
COc1cccc(NC(=O)CN(c2ccccc2OC)S(=O)(=O)c2cccs2)c1 | 10 | -0.4 | 6.3 | 1.1 | 0.68 | i | -2
CCC(=O)Nc1sc2c(c1C#N)CC(C)(CC)OC2 (stereo unspecified) | -6 | 1.1 | -3.7 | 1.8 | 0.71 | · | -6
CCOC(=O)c1cccc(NC(=O)c2cnccn2)c1 | -12 | 1.3 | 4.7 | -0.2 | 0.66 | · | -3
c1cc(-c2nnc3n2CCCCC3)ccn1 | 4 | -2.5 | 1.3 | 2.3 | 0.69 | · | -1
CC(=O)c1cccc(NC(=O)Nc2cccnc2)c1 | 15 | -3.5 | -4.9 | 1.4 | 0.65 | · | -3
CCCC(=O)Nc1nnc(-c2ccccc2)o1 | -4 | 2.3 | 0.4 | 6.3 | 0.73 | i | -10
